# FGF22 binding – FGF22 (human) thermal shift binding. Q9HCT0. recombinant FGF22 thermal shift, SYPRO orange fluorescence; percent of sucrose octasulfate shift, DMSO zero. calls only at 9.99 µM. 1.5% of 340,000 active. AID 651658;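 active = melting point raised past a set limit in the mean and every replicate; three in four hits are not shown here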
# Target sequence (Q9HCT0 whole entry, looked up): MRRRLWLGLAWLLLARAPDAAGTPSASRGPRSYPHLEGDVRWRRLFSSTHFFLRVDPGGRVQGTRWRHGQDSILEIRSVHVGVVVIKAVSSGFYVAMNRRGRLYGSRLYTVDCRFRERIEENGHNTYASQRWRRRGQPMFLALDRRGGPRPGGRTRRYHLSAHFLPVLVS
# UCH37 DUB inh – human UCH37 deubiquitinating enzyme inhibition; Q9Y5K5; purified proteasome/UCH37, Ub-AMC cleavage fluorescence; inhibition, % (no concentration beside the values); 0.33% of 330,000 active;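 active = mean of two replicates above 20%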;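 also: 0% = compound-free wells with enzyme and 100% = wells lacking proteasome; stock transfer was 100 nL into about 20 µL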
# Target sequence (Q9Y5K5 whole entry, looked up): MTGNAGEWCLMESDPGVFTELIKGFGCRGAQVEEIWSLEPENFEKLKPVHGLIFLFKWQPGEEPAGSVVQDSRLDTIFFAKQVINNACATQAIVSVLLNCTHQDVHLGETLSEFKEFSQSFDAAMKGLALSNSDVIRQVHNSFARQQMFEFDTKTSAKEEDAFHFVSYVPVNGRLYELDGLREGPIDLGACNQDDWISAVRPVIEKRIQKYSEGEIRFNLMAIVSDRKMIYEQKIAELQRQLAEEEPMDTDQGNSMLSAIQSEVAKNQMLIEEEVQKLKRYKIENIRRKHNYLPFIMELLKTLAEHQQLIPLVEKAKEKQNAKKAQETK
#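 system = Proteasome-associated human UCH37 deubiquitinase | amount = 0.15 nM proteasome as dispensed | medium = pH 7.4 Tris-HCl (50 mM) with ovalbumin, ATP-MgCl2, DTT | incubation = 30 min preincubation with enzyme, 25 min cleavage at room temperature | detection = AMC fluorescence 355/460 nm | read-out basis = percent inhibition | controls = no-proteasome and no-compound wells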
# AF4-AF9 inh – inhibitors of human MLL-AF4/AF9 interaction; P42568; AlphaScreen, biotin-AF4 peptide binding to FLAG-AF9; inhibition, % at 10 µM; 0.47% of 350,000 active; AID 651704;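 active = every replicate reaching a set inhibition limit, whatever the replicate mean, cut at about 25% in these data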;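 also: 0% = plate neutral control median and 100% = total signal loss; the record names both 10 and 1 µM as test concentration; the first replicate is given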
# Target sequence (P42568 whole entry, looked up): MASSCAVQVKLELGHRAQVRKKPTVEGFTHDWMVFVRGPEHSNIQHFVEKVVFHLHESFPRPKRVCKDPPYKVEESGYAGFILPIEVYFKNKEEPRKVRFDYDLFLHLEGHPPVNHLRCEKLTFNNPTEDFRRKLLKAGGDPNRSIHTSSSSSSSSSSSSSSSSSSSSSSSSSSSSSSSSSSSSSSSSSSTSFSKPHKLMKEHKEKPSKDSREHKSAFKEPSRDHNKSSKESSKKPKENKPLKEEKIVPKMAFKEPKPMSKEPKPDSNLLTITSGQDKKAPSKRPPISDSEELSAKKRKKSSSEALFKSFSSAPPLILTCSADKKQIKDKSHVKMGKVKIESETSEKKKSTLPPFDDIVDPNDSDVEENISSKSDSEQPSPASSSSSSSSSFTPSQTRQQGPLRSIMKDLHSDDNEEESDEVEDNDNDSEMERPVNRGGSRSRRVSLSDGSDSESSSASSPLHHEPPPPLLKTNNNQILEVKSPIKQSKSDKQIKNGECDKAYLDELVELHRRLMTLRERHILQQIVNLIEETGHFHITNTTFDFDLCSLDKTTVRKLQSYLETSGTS
# rRNA inh HTS – selective bacterial rRNA inhibition in E. coli | E. coli WT GFP vs humanized-ribosome RFP mutants, fluorescence, 24 h; stronger effect = lower value; DMSO median 0, no signal -100 | GFP signal change (wild-type ribosome), % (no concentration beside the values) | 1.6% of 350,000 active;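 active = significant combined selectivity score with lowered wild-type GFP, culture density cut under 30%, mutant RFP and density less affected; inactive = any of these conditions unmet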; also: one replicate is shown; some compounds called inactive have numbers as strong as hits
# Beta apoptosis – beta cell apoptosis inhibition. INS-1E cytokine-induced death, ATP luminescence, 48 h; percent of positive-control rescue, neutral wells zero. protection from apoptosis, % (no concentration beside the values). 0.8% of 300,000 active;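 active = all replicates at 75% or more, or half of them and the mean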;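 also: 0% = cytokine-treated negative control wells and 100% = positive control rescue; higher means more ATP so stronger rescue from cytokine killing; wells of about 40 µL received 100 nL stock; the first replicate is given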
# Bfl-1 A1 inh – inhibitors of the anti-apoptotic protein A1, read as caspase activation; MEF A1-2A-BIM cells, Caspase-Glo 3/7 luminescence, 3 h; percent of clofoctol response, vehicle zero; caspase activation, % (test concentration not listed); 0.066% of 330,000 active; AID 2462;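 active = over half of replicate activation scores above 10%, or exactly half above 10 with the replicate mean above 10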;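 also: wells of about 30 µL received 50 nL stock; many hits fall short of the cut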
# E coli growth – inhibitors of Escherichia coli growth | 0.21% of 330,000 active | OD600, 23 h; stronger effect = lower value | OD600 absorbance (test concentration not listed);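 active = OD600 absorbance below the run mean of sample wells minus 3.6 SD, in any replicate, cut at about 0.56 in these data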;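 also: stock transfer was 300 nL into about 60 µL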
# T cruzi inh – blocks replication of Trypanosoma cruzi; 1.4% of 300,000 active; inhibition, % (no concentration beside the values); T. cruzi beta-gal in NIH3T3, luminescence, 90 h; AID 1885;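 active = mean inhibition across valid replicates above about 55%, limit read from the data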;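 also: signal also drops with host cell toxicity which is not excluded here; 0% = plate median of DMSO wells and 100% = zero luminescence signal; higher percent means less beta-gal luminescence so fewer parasites; stock transfer was 50 nL into about 50 µL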
# rRNA inh HTS OD600 – second read-out of rRNA inh HTS, no call of its own (marks repeat the call); OD600 change, %; measured here: OD600 growth;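 optical density of the mix in the first replicate; 0 = DMSO median and -100 = no signal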
# rRNA inh HTS RFP – second read-out of rRNA inh HTS, no call of its own (marks repeat the call); RFP signal change, %; measured here: RFP humanized mutant strains;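 first replicate; 0 = DMSO median and -100 = no signal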
# * marks the source's active call; other numbers are inactive results; i = inactive; . = no result given. Not all compounds are listed, so the mix of outcomes need not match the whole.
SMILES | FGF22 binding | UCH37 DUB inh | AF4-AF9 inh | rRNA inh HTS | rRNA inh HTS OD600 | rRNA inh HTS RFP | Beta apoptosis | Bfl-1 A1 inh | E coli growth | T cruzi inh
CC(=O)Nc1ccc(S(=O)(=O)N(C)CC(=O)Nc2ccccc2N2CCOCC2)cc1 | . | 5.2 | . | . | . | . | -2.1 | 0.3 | 0.684 | -6.7
O=C(Cn1cc(C(F)(F)F)cc(Cl)c1=O)NCCc1ccccc1 | . | 1.0 | . | . | . | . | -0.7 | 0.1 | 0.674 | 9.8
CCCCN(CC(=O)Nc1c(C)cccc1CC)C(=O)SCC | . | 1.5 | . | . | . | . | 1.5 | 1.1 | 0.683 | 9.6
CNC(=O)N1c2ccccc2C=Cc2ccccc21 | i | -0.4 | -1.6 | 5.1 | 7.8 | -1.1 | -1.5 | 0.8 | 0.666 | 2.2
CN(C)c1ccc(P(=O)(Nc2cccc(C(F)(F)F)c2)N2CCOCC2)c(NC(=O)c2cccs2)c1 (centres undefined) | i | 1.3 | 2.2 | 4.2 | 7.0 | -4.0 | -3.4 | 0.0 | 0.752 | 10.3
O=C1C(Cc2ccc(O)cc2)NC(=S)N1Cc1ccccc1 (centres undefined) | i | 2.8 | -0.9 | -17.2 | -4.1 | -1.1 | -12.8 | 0.0 | 0.702 | -16.0
CC1=C(C(N)=O)C(c2ccccc2)n2nc(-c3cccc(C)c3)nc2N1 (centres undefined) | . | 2.7 | -1.3 | 5.5 | -4.8 | 1.9 | -3.5 | -0.4 | 0.73 | -0.2
Cc1ccc(C2C(C(=O)O)c3ccccc3C(=O)N2C)c(C)c1 (centres undefined) | i | 3.0 | -1.5 | 6.3 | 15.0 | -5.5 | -6.3 | -0.2 | 0.651 | -9.8

# Some values from the entries so far:
# CNC(=O)N1c2ccccc2C=Cc2ccccc21 @ Beta apoptosis = -1.5
# CCCCN(CC(=O)Nc1c(C)cccc1CC)C(=O)SCC @ T cruzi inh = 9.6
# CC(=O)Nc1ccc(S(=O)(=O)N(C)CC(=O)Nc2ccccc2N2CCOCC2)cc1 @ Bfl-1 A1 inh = 0.3
# CN(C)c1ccc(P(=O)(Nc2cccc(C(F)(F)F)c2)N2CCOCC2)c(NC(=O)c2cccs2)c1 (centres undefined) @ Beta apoptosis = -3.4
# O=C1C(Cc2ccc(O)cc2)NC(=S)N1Cc1ccccc1 (centres undefined) @ Beta apoptosis = -12.8

# Going on with the list:
SMILES | FGF22 binding | UCH37 DUB inh | AF4-AF9 inh | rRNA inh HTS | rRNA inh HTS OD600 | rRNA inh HTS RFP | Beta apoptosis | Bfl-1 A1 inh | E coli growth | T cruzi inh
CCSc1nc(=O)n(-c2ccccc2)c(C)c1C(C)=S | . | 4.7 | . | . | . | . | -0.2 | 0.2 | 0.693 | -14.2
Cc1ccc(-n2nc(C(=O)NCc3ccco3)c3c4ccccc4n(C)c3c2=O)cc1 | . | -18.3 | . | . | . | . | 7.4 | 0.5 | 0.732 | 12.1
CCCCNC(=O)CCn1c(=O)c2ccccc2n(Cc2cc(C)ccc2C)c1=O | i | -4.3 | -0.2 | 15.8 | 20.4 | -0.7 | 0.3 | -0.1 | 0.699 | 0.7
O=C(N/N=C/c1ccc(O)c(O)c1)c1ccc(CSc2cccc3cccnc23)cc1 | . | . | . | -16.3* | 2.1* | -1.4* | -2.8 | -0.6 | . | -19.3
CSc1nnc(Cn2c(=O)sc3ccccc32)n1-c1ccccc1 | i | 2.4 | 0.5 | -3.6 | -5.1 | -0.2 | -1.7 | -1.4 | 0.76 | -4.8
CCCN1CCN(C(=O)c2nn(-c3ccc(OC)cc3)c(=O)c3c2c2ccccc2n3C)CC1 | i | -4.2 | -0.7 | 6.2 | 12.9 | -1.1 | -8.4 | -0.5 | 0.72 | 29.3
CC(C)(C)C1CCC(OCC(O)CN2CCCC2)CC1 (centres undefined) | i | 1.6 | -0.1 | 16.9 | 16.1 | -0.4 | -1.9 | 0.0 | 0.674 | 53.5
CN(CC(=O)Nc1ccc(F)cc1)c1ccc(S(=O)(=O)N2CCCC2)cn1 | i | 1.9 | -2.6 | 12.0 | 14.5 | 4.1 | -9.1 | 0.1 | 0.734 | -1.8
CSc1nc(N)nc2c1ncn2CC(=O)NCc1ccc2c(c1)OCO2 | i | -0.2 | -0.8 | 6.6 | 3.4 | -2.3 | -0.2 | -0.8 | 0.726 | .
CCN(C(=S)Nc1ccc(C(C)=O)cc1)C1CCCCC1 | i | 0.1 | -2.6 | -1.8 | 2.3 | -0.1 | -2.2 | 0.2 | 0.718 | -14.9
CCOC(=O)CC(NC(=O)c1ccc(C)cc1)c1ccc(C)cc1 (centres undefined) | . | 2.2 | . | . | . | . | 0.9 | 2.5 | 0.732 | 21.8
O=C(Nc1ccncc1)C1CCN(S(=O)(=O)c2ccc(Cl)c(C(F)(F)F)c2)CC1 | i | 0.4 | 2.0 | -50.8 | -76.2 | -8.6 | 3.2 | 0.6 | 0.656 | .
CC[C@]12C(=O)N(C)C[C@H]([C@@H]3C(=O)N(C)C(=O)[C@@H]31)N2C(=O)c1ccc(Br)cc1 | i | 0.5 | -38.8 | 7.2 | 12.8 | -0.1 | . | . | . | .
Cc1cc(=O)[nH]c2[nH][nH]c(=O)c12 | i | 3.4 | -2.6 | 1.9 | 10.3 | -0.7 | . | . | 0.731 | .
CC1CCN(C(=O)c2ccc3c(c2)NC(=O)CN3)CC1 | i | -30.3 | 4.9 | 8.6 | 20.4 | 1.0 | -7.7 | 0.1 | 0.657 | 3.0
COC(=O)C1=NN(C(=O)c2ccc(Br)cc2)C(O)(C(C)(C)C)C1 (centres undefined) | i | 3.8 | -2.5 | -24.0* | -15.6* | -6.1* | . | . | 0.711 | .
Cc1nn(C)cc1/C=C1\CCC/C(=C\c2cn(C)nc2C)C1=O | . | -10.2 | . | . | . | . | -0.3 | 0.7 | 0.723 | -2.1
Nc1nc(SCC(=O)Nc2ncc(Cl)cc2Cl)n[nH]1 | i | 6.1 | 0.5 | 3.2 | 4.6 | -3.4 | -6.0 | -0.2 | 0.646 | .
COc1cc2c(cc1OC)C(=O)N1[C@H]3c4ccccc4OC[C@@H]3[C@H](c3ccccc3)[C@]1(C)C(=O)N2 | i | 3.1 | . | 2.1 | -8.3 | -1.7 | 0.0 | 0.3 | . | .
Cc1ccnc(NS(=O)(=O)c2ccc(NC(=O)c3oc4ccccc4c3C)cc2)n1 | i | -0.8 | -0.3 | 5.0 | 17.6 | 2.6 | -8.8 | 0.6 | 0.714 | -17.6
Cc1cccc(NC(=O)C(C)OC(=O)c2ccccc2NS(=O)(=O)c2cc(C)c(C)c([N+](=O)[O-])c2)c1 (centres undefined) | i | 4.3 | 2.7 | 6.6 | 10.8 | 5.0 | 10.6 | 0.4 | 0.716 | 3.7
O=C1C2C3CCC(O3)C2C(=O)N1c1cccc(O)c1 (centres undefined) | i | 0.8 | -2.7 | 6.3 | 5.7 | -0.3 | -3.5 | 0.5 | 0.66 | -10.3
CCS(=O)(=O)N1CCC(C(=O)N2CCN(Cc3ccccc3)CC2)CC1 | i | -0.3 | -0.1 | 8.6 | 2.0 | 2.4 | . | -0.4 | 0.682 | -4.3
Cc1ccc(C)c(NC(=O)CN2C(=O)NC(CCc3ccccc3)C2=O)c1 (centres undefined) | i | 4.8 | -1.1 | 2.1 | 14.4 | -2.8 | -3.3 | -0.3 | 0.712 | .
Oc1c(C=Nc2cccc3nsnc23)ccc2ccccc12 | . | 15.1 | . | . | . | . | . | -0.8 | 0.709 | -13.0
O=C(N/C=N/OCc1ccc(Cl)cc1Cl)NOCc1c(Cl)cccc1Cl | . | 1.9 | . | . | . | . | 9.2 | 0.9 | . | -20.8
CCOC(=O)CSC1=C(C#N)C(c2ccccc2OCC)C(C#N)C(=O)N1 (centres undefined) | . | 4.4 | . | . | . | . | 0.2 | 0.7 | 0.64 | 3.1
COc1ccc(NC(=O)CCc2nc3ccccc3c(=O)[nH]2)cc1S(=O)(=O)N1CCCCC1 | i | 0.8 | 1.8 | 17.9 | 12.5 | 4.3 | 7.0 | 0.9 | 0.685 | .
COc1ccc(CC(=O)OCC(=O)NC2CCCC(C)C2C)cc1 (centres undefined) | i | 1.2 | -0.3 | -7.5 | -3.9 | 4.8 | 0.7 | -1.2 | 0.68 | .
O=C(O)CCCN1C(=O)/C(=C/C=C/c2ccco2)SC1=S | i | 20.3* | 1.5 | 8.9 | 9.2 | 2.4 | -7.4 | -0.4 | 0.687 | -3.0
O=C(N1CCN(CCO)CC1)N1c2ccccc2C=Cc2ccccc21 | . | -0.4 | . | . | . | . | 0.4 | 0.8 | 0.735 | 5.4
COc1ccccc1C1C2=C(CCCC2=O)N(CC(=O)O)C2=C1C(=O)CCC2 | i | . | 5.4 | 2.8 | 1.9 | -2.2 | -3.0 | 2.5 | . | -1.6

# Part of the list above in order of number of heavy atoms, smallest number first.
SMILES | FGF22 binding | UCH37 DUB inh | AF4-AF9 inh | rRNA inh HTS | rRNA inh HTS OD600 | rRNA inh HTS RFP | Beta apoptosis | Bfl-1 A1 inh | E coli growth | T cruzi inh
O=C(O)CCCN1C(=O)/C(=C/C=C/c2ccco2)SC1=S | i | 20.3* | 1.5 | 8.9 | 9.2 | 2.4 | -7.4 | -0.4 | 0.687 | -3.0
Oc1c(C=Nc2cccc3nsnc23)ccc2ccccc12 | . | 15.1 | . | . | . | . | . | -0.8 | 0.709 | -13.0
O=C(N1CCN(CCO)CC1)N1c2ccccc2C=Cc2ccccc21 | . | -0.4 | . | . | . | . | 0.4 | 0.8 | 0.735 | 5.4
COc1ccccc1C1C2=C(CCCC2=O)N(CC(=O)O)C2=C1C(=O)CCC2 | i | . | 5.4 | 2.8 | 1.9 | -2.2 | -3.0 | 2.5 | . | -1.6
COc1ccc(NC(=O)CCc2nc3ccccc3c(=O)[nH]2)cc1S(=O)(=O)N1CCCCC1 | i | 0.8 | 1.8 | 17.9 | 12.5 | 4.3 | 7.0 | 0.9 | 0.685 | .

# Next section.
SMILES | FGF22 binding | UCH37 DUB inh | AF4-AF9 inh | rRNA inh HTS | rRNA inh HTS OD600 | rRNA inh HTS RFP | Beta apoptosis | Bfl-1 A1 inh | E coli growth | T cruzi inh
Fc1ccc(/C=N/n2c(C3CCCCC3)n[nH]c2=S)cc1 | i | . | -6.4 | 4.2 | 1.1 | -2.6 | -0.8 | 0.4 | . | -1.6
COc1ccc(-c2noc(N3CCC(C(=O)Nc4ccc(F)cc4)CC3)n2)cc1 | i | 1.9 | 0.2 | -4.4 | 3.9 | -4.2 | -10.7 | -0.4 | 0.714 | -4.0
COc1ccc2c(-c3ccccc3)cc3nnnn3c2c1 | i | -2.9 | -0.5 | 0.1 | -6.2 | 1.6 | 12.4 | 0.1 | 0.704 | 0.2
NC(=O)C(c1ccccn1)c1ncc(C(F)(F)F)cc1Cl (centres undefined) | i | -0.1 | 0.3 | 10.6 | 1.9 | 0.3 | -3.3 | -1.8 | 0.678 | -8.6
